D2 PAM: human D2 receptor positive allosteric modulation | AID 624464 | DiscoveRx D2 beta-arrestin cells, luminescence, 90 min; 100% = 57 uM dopamine signal | potentiation, % (concentration not given with the values) | P14416 | hit rate 0.23% among 360,000; active = potentiation of 50% or more; inconclusive = 30% to 50%; inactive = 30% or less;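 also: compound concentration not given in the record; tested on top of an EC20 dose of dopamine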
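PathHunter beta-arrestin assay in DiscoveRx D2 cells. Compounds were added with an EC20 of dopamine (50 nM final) for 90 min at 37 deg C. Luminescence was read 1 h after detection reagent, with 57 uM dopamine as the EC100 control.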
PINK1 modulator: PINK1 expression modulation | PINK1 immunofluorescence, high-content cytometry, 24 h | Potency, µM (highest dose often 76.6 µM), without a hit: top-dose activation (PINK1 increase), usual class: activators | hit rate 0.2% among 410,000; active = well fitted activation curve with a large enough effect; inconclusive = small, poorly fitted or top-dose-only effect; inactive = flat fitted curve, though single readings scatter; cell line not stated here;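 also: potency is read from the fitted curve at half-maximal effect; % of control where 0% means no effect; nearly all actives have a fitted effect of over 65% in size; a mitochondrial uncoupler was the plate control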
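Decision-based qHTS: stable cells, 24 h exposure to five compound concentrations, CCCP as control. Fixed cells stained for PINK1 plus nuclear, mitochondrial and cell markers, cytometer read.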
D2 agonist: human D2 receptor agonism in beta-arrestin assay; P14416; DiscoveRx PathHunter D2 beta-arrestin, luminescence, 90 min; 100% = 57 uM dopamine signal; activation, % (concentration not given with the values); hit rate 0.084% among 360,000; in the data active = activation above about 40%; inconclusive = about 15% to 40%; inactive = below about 15%; also: compound concentration not given in the record; the text of the record calls up to 30% inactive
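DiscoveRx PathHunter D2 beta-arrestin cells (2,100/well) attached overnight, then compound-stimulated 90 min at 37 C in HBSS/10 mM HEPES/0.1% Tween-20 buffer; beta-galactosidase complementation read by luminescence after 1 h at ambient temperature. Dopamine 57 uM final (EC100) as control.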
TRPML1 ag: agonists of human TRPML1 channel; Q9GZU1; TRPML1-expressing cells, Ca2+ dye fluorescence, FDSS; host cell line not named in the record; reference of the full effect not given here; activation, % (no concentration beside the values); hit rate 0.12% among 410,000; AID 624414; in the data active = activation above about 50%; inconclusive = about 30% to 50%; inactive = below about 30%; also: 0% is about no effect; the text of the record puts the active cut at 80%
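Kinetic FDSS Ca2+ read in Tet-induced TRPML1-DL cells (ABD Ca8 dye plus quencher, 45-90 min RT loading): baseline, then compound, then 110 s agonist window; EC80 agonist 54-4 at 4uM final added afterwards for a 110 s antagonist window.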
CtBP-E1A inh: CtBP/E1A binding inhibition. AlphaScreen GST-E1A/His-CtBP binding, 1536-well; hits give low values; control for the full effect not named in the record. activity change, % (no concentration beside the values). hit rate 0.49% among 340,000; in the data active means activity change below about -65%; inconclusive means about -30% to -65%; inactive means above about -30%; also: % is scaled to controls: 0 for no effect and ±100 for the full control effect; compound concentration not given in the record
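In 5 uL wells, 23 nL compound meets equimolar GST-E1A and His-CtBP (5X stock 125 nM each) for 2 h, 37 °C. Beads (5X, 50 ug/mL) then 1 h, 37 °C, dark.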
Six1-Eya2 inh: Six1/Eya2 interaction inhibition; AlphaScreen GST-Six1/His-Eya2 binding, biochemical; hits give low values; control for the full effect not named in the record; activity change, % (concentration not given with the values); hit rate 0.56% among 360,000; Q15475+O00167; in the data active = activity change below about -65%; inconclusive = about -30% to -65%; inactive = above about -30%; also: % is scaled to controls: 0 for no effect and ±100 for the full control effect
Target sequence (O00167 whole entry, looked up): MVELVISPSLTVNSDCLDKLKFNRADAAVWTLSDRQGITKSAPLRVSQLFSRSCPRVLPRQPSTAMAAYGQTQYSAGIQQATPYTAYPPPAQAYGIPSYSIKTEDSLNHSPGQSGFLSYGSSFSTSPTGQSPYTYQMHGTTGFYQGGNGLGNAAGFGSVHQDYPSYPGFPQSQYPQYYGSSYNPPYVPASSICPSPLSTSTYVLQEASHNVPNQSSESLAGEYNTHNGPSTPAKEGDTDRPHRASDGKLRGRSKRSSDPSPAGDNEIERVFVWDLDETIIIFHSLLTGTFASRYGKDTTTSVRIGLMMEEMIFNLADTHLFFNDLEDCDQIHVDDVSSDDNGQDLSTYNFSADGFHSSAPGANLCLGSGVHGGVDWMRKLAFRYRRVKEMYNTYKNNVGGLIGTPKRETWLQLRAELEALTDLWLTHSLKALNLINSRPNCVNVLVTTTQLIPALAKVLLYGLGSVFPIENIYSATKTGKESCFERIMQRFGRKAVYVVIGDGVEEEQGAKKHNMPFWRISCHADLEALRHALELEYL
Target sequence (Q15475 whole entry, looked up): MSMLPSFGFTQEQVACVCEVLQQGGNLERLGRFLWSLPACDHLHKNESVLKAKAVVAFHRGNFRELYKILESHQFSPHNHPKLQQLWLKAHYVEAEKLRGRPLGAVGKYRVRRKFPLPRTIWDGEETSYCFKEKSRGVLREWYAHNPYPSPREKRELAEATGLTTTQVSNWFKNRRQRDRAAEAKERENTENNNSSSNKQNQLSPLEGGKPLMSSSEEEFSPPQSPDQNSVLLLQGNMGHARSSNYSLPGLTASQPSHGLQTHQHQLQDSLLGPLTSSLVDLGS
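AlphaScreen luminescence read after one hour at 37 °C in darkness. Pin-transferred compounds met GST-Six1 and His-Eya2 protein (5X stock 250 nM/500 nM) plus glutathione donor and Ni-chelate acceptor beads (5X, 50 ug/mL).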
* hit, by the source's call; [ ] = another dose, or the depositor's remark.

Screening COc1cc(C2NC(=O)NC(C)=C2C(=O)OCc2ccc(C)cc2)cc(OC)c1O (stereo not drawn) returned D2 PAM -3, D2 agonist -0.2, TRPML1 ag 0.8, CtBP-E1A inh 7 and Six1-Eya2 inh -1.
Screening O=C(NCCCn1ccnc1)c1ccc(-c2cccc(C(F)(F)F)c2)o1 returned D2 PAM -13, PINK1 modulator -1.5%, D2 agonist -1.6, TRPML1 ag -0.3 and Six1-Eya2 inh -8.
`CC(C)c1ccc(NC(=S)Nc2ccc3[nH]c(=O)[nH]c3c2)cc1` gave D2 PAM -4, PINK1 modulator -1.0%, D2 agonist -3.2, CtBP-E1A inh 2 and Six1-Eya2 inh -1.
For CCC(C(=O)OCC(=O)Nc1c(C)nn(-c2ccccc2)c1C)c1ccccc1 (stereo not drawn) the results were D2 PAM 4, PINK1 modulator -2.6%, D2 agonist -0.4, TRPML1 ag 3.8, CtBP-E1A inh -5 and Six1-Eya2 inh 4.
CN1CCN(CCCNC(=O)Nc2ccc([N+](=O)[O-])cc2)CC1 was read as D2 PAM -7, PINK1 modulator 1.3%, D2 agonist -0.4, TRPML1 ag -0.5, CtBP-E1A inh 8 and Six1-Eya2 inh 5.
For O=C(NNC(=S)NCc1ccccc1)c1ccc(Br)o1 the results were D2 PAM -17, PINK1 modulator 0.2%, D2 agonist 1.6, TRPML1 ag 1.0, CtBP-E1A inh 34 and Six1-Eya2 inh 17.
For CN1C[C@@H]2[C@@H]3C(=O)N(Cc4ccccc4)C(=O)[C@@H]3[C@](Cc3ccccc3)(C1=O)N2C(=O)c1ccccc1 the results were D2 PAM -6, PINK1 modulator 0.0%, D2 agonist -2.6, TRPML1 ag -0.4, CtBP-E1A inh -7 and Six1-Eya2 inh -26.
For COc1ccc2[nH]c(=O)c(CN(C(=O)c3cccnc3)c3ccccc3OC)cc2c1 the results were D2 PAM -7, PINK1 modulator 1.7%[38.3 µM], D2 agonist -1.7, TRPML1 ag -0.2, CtBP-E1A inh 10 and Six1-Eya2 inh -3.
`Cn1cnc([N+](=O)[O-])c1N=C(N)N` gave D2 PAM -7, PINK1 modulator 2.6%, D2 agonist -1.9, TRPML1 ag -0.4, CtBP-E1A inh 0 and Six1-Eya2 inh -2.
For O=C(O)CCC(=O)N1CCc2cc(S(=O)(=O)NC3CCCc4ccccc43)ccc21 (stereo not drawn) the results were D2 PAM 2, PINK1 modulator 2.2%[38.3 µM], D2 agonist -1.9, TRPML1 ag 0.9, CtBP-E1A inh 2 and Six1-Eya2 inh 5.
`COc1ccccc1CNc1nc(Nc2ccc(C)cc2C)c2sccc2n1` gave D2 PAM -19, PINK1 modulator inconclusive, D2 agonist -3.5, TRPML1 ag 0.0, CtBP-E1A inh -11 and Six1-Eya2 inh -6.
CS(=O)(=O)c1cccc(C(=O)Oc2ccccc2)c1 was read as D2 PAM -7, PINK1 modulator 1.5%, D2 agonist -0.6, TRPML1 ag 1.2, CtBP-E1A inh 1 and Six1-Eya2 inh 7.

The last 3 records of the section before lead into the next:
For O=C(O)CCC(=O)N1CCc2cc(S(=O)(=O)NC3CCCc4ccccc43)ccc21 (stereo not drawn) the results were D2 PAM 2, PINK1 modulator 2.2%[38.3 µM], D2 agonist -1.9, TRPML1 ag 0.9, CtBP-E1A inh 2 and Six1-Eya2 inh 5.
`COc1ccccc1CNc1nc(Nc2ccc(C)cc2C)c2sccc2n1` gave D2 PAM -19, PINK1 modulator inconclusive, D2 agonist -3.5, TRPML1 ag 0.0, CtBP-E1A inh -11 and Six1-Eya2 inh -6.
CS(=O)(=O)c1cccc(C(=O)Oc2ccccc2)c1 was read as D2 PAM -7, PINK1 modulator 1.5%, D2 agonist -0.6, TRPML1 ag 1.2, CtBP-E1A inh 1 and Six1-Eya2 inh 7.
`O=C(Nc1cccc(Cl)c1)N1CCc2ccccc2C1` gave D2 PAM -19, PINK1 modulator 0.5%, D2 agonist -2.8, TRPML1 ag -0.8, CtBP-E1A inh 11 and Six1-Eya2 inh 6.
Screening O=C(CSc1nnc(C23CC4CC(CC(C4)C2)C3)o1)Nc1ccc(N2CCOCC2)c(Cl)c1 returned D2 PAM 3, PINK1 modulator 3.7%[38.3 µM], D2 agonist -2.3, TRPML1 ag 0.2, CtBP-E1A inh 7 and Six1-Eya2 inh 7.
Cc1ccn2c(CNCCn3nc(C)cc3C)c(C(=O)N3CCCCCC3)nc2c1 was read as D2 PAM -6, PINK1 modulator 1.4%, D2 agonist -5.7, TRPML1 ag -0.4, CtBP-E1A inh 2 and Six1-Eya2 inh 9.
COc1cccc(CNC(=O)COC(=O)c2cc([N+](=O)[O-])ccc2N2CCCC2)c1 was read as D2 PAM -10, PINK1 modulator -1.0%, D2 agonist -1.9, TRPML1 ag -0.7, CtBP-E1A inh 4 and Six1-Eya2 inh -14.
Screening Cc1cccc(N2CCN(C(=O)CCn3c(=S)[nH]c4cc5c(cc4c3=O)OCO5)CC2C)c1 (stereo not drawn) returned D2 PAM -7, PINK1 modulator -3.6%, D2 agonist -1.2, TRPML1 ag -1.1, CtBP-E1A inh 5 and Six1-Eya2 inh 0.
O=C(COc1ccccc1F)NNC(=O)Cc1ccc(S(=O)(=O)N2CCOCC2)s1 was read as D2 PAM -2, PINK1 modulator -3.2%, D2 agonist 2.2, TRPML1 ag 1.8, CtBP-E1A inh 5 and Six1-Eya2 inh 2.
Screening CC(=O)Nc1ccc(C(=O)NC(C)c2ccc(-n3ccnc3)cc2)cc1 (stereo not drawn) returned D2 PAM -20, PINK1 modulator 4.0%, D2 agonist -1.3, TRPML1 ag -0.5, CtBP-E1A inh 0 and Six1-Eya2 inh 0.
O=C(NCc1cccc(C(F)(F)F)c1)c1cc(Cl)cc(Cl)c1 was read as D2 PAM 5, PINK1 modulator 1.8%[38.3 µM], D2 agonist -0.7, TRPML1 ag 3.0, CtBP-E1A inh 29 and Six1-Eya2 inh 18.
`COc1ccc(S(=O)(=O)N2CCCCC2)cc1NC(=O)c1ccc2c(c1)OCO2` gave D2 PAM -5, PINK1 modulator 3.9%, D2 agonist -0.8, TRPML1 ag 3.0, CtBP-E1A inh -3 and Six1-Eya2 inh 6.
`Cc1cccc(C(=O)NCCC(=O)Nc2nc(C)c(Cc3ccc4c(c3)OCO4)s2)c1` gave D2 PAM -3, PINK1 modulator 0.3%, D2 agonist 6.2, TRPML1 ag -0.7, CtBP-E1A inh -4 and Six1-Eya2 inh 1.
`CCc1nc(SCC(N)=O)c2c(=O)n(C)c(=O)n(C)c2n1` gave D2 PAM -3, PINK1 modulator -0.6%, D2 agonist -1.8, TRPML1 ag 0.3, CtBP-E1A inh -1 and Six1-Eya2 inh 1.
O=C1CCCN1CCCNS(=O)(=O)c1ccc(F)c(F)c1 was read as D2 PAM -8, PINK1 modulator -0.2%, D2 agonist -4.2, TRPML1 ag -0.2, CtBP-E1A inh 2 and Six1-Eya2 inh -1.
Screening CN(C)C(CNC(=O)c1ccc(NS(=O)(=O)c2ccc(F)cc2)cc1)c1ccco1 (stereo not drawn) returned D2 PAM -67, PINK1 modulator -1.9%, D2 agonist -13, TRPML1 ag -0.3, CtBP-E1A inh 1 and Six1-Eya2 inh 4.
Screening Cc1ccc(NC(=S)N2CCC(c3nc4ccccc4s3)CC2)cc1C returned D2 PAM -1, PINK1 modulator -0.4%[38.3 µM], D2 agonist -0.5, TRPML1 ag 1.7, CtBP-E1A inh 3 and Six1-Eya2 inh -19.
Screening O=S(=O)(c1ccccc1)N1CCN(S(=O)(=O)N2CCCCC2)CC1 returned D2 PAM -5, PINK1 modulator inconclusive, D2 agonist 2.4, TRPML1 ag 0.9, CtBP-E1A inh -6 and Six1-Eya2 inh -8.
Screening Cc1ccc(NC(=O)CCC(=O)c2ccc(Br)cc2)cc1 returned D2 PAM -5, PINK1 modulator 1.3%, D2 agonist 3.8, TRPML1 ag 2.3 and Six1-Eya2 inh 5.
`Cc1ccc(-n2c(SCC(N)=O)nnc2-c2ccccn2)cc1C` gave D2 PAM -1, PINK1 modulator -0.7%, D2 agonist 0.2, TRPML1 ag -0.4, CtBP-E1A inh -26 and Six1-Eya2 inh -25.
`CC(C(=O)N1c2ccccc2CCc2ccccc21)n1nnc(-c2ccc(N(C)C)cc2)n1` (stereo not drawn) gave D2 PAM -12, PINK1 modulator -1.7%, D2 agonist -2.6, TRPML1 ag 0.3, CtBP-E1A inh inconclusive and Six1-Eya2 inh inconclusive.
`COc1ccc(NC(=O)CC2SC(=NCC3CCCO3)NC2=O)cc1` (stereo not drawn) gave D2 PAM -8, PINK1 modulator -0.1%, D2 agonist 1.1, TRPML1 ag 0.3 and Six1-Eya2 inh -3.
For COc1ccc([C@H]2N[C@]3(CCCN(Cc4ccc(C)cc4)C3=O)[C@H]3C(=O)N(Cc4ccccc4)C(=O)[C@@H]23)cc1 the results were D2 PAM -3, PINK1 modulator 1.1%, D2 agonist -7.4, TRPML1 ag 0.4, CtBP-E1A inh -24 and Six1-Eya2 inh -10.
Screening COC(=O)c1ccc(NC(=O)c2ccc3c(c2)OCO3)cc1 returned D2 PAM 8, PINK1 modulator 1.4%, D2 agonist 0.5, TRPML1 ag -0.4, CtBP-E1A inh 2 and Six1-Eya2 inh 2.
CCCN(CCC)S(=O)(=O)c1ccc(N2CCCC2=O)c([N+](=O)[O-])c1 was read as D2 PAM 6, PINK1 modulator -0.1%, D2 agonist -1.2, TRPML1 ag -0.8, CtBP-E1A inh 0 and Six1-Eya2 inh -5.
O=C1CCCC(=O)N1CCCCCCN1C(=O)CCCC1=O was read as D2 PAM -4, PINK1 modulator 1.7%, D2 agonist -4.8, TRPML1 ag -0.6, CtBP-E1A inh 2 and Six1-Eya2 inh -24.
Cc1ccc(S(=O)(=O)NC(=NC2CCCCC2)c2ccccc2)cc1 was read as D2 PAM -7, PINK1 modulator 2.7%, D2 agonist -2.2, TRPML1 ag 0.3, CtBP-E1A inh -11 and Six1-Eya2 inh 3.
For CCN1CCc2c(C#N)c(N3CCCCC3)nc(NCc3ccccc3)c2C1 the results were D2 PAM -28, PINK1 modulator 15%, D2 agonist -1.5, TRPML1 ag -0.5, CtBP-E1A inh -18 and Six1-Eya2 inh -21.
Screening CC1CC(Nc2ccccc2)=NC1(C)C (stereo not drawn) returned D2 PAM -6, PINK1 modulator 4.3%, D2 agonist -3.9, TRPML1 ag -0.1, CtBP-E1A inh 4 and Six1-Eya2 inh 8.
Screening O=C(Nc1ccc(N2CCCCC2)c(S(=O)(=O)Nc2ccccc2Cl)c1)c1cccnc1 returned D2 PAM 10, PINK1 modulator inconclusive, D2 agonist 3.3, TRPML1 ag -0.2, CtBP-E1A inh 0 and Six1-Eya2 inh -2.
Screening Cc1ccc(S(=O)(=O)NC(CC(C)C)C(=O)NCCCn2nc(C)cc2C)cc1 (stereo not drawn) returned D2 PAM -2, PINK1 modulator 1.5%, D2 agonist 4.1, TRPML1 ag 4.2, CtBP-E1A inh -4 and Six1-Eya2 inh 1.
CCOC(=O)C1=C[C@@H](C(C)(C)C)N(S(=O)(=O)c2ccccc2C)[C@H]1c1ccc(Cl)cc1 was read as D2 PAM -8, PINK1 modulator 3.0%, D2 agonist -4.1, TRPML1 ag 4.9, CtBP-E1A inh 5 and Six1-Eya2 inh 7.

Assay outcomes deposited in PubChem by National Center for Advancing Translational Sciences (NCATS).

No enrichment for hits (roughly 1.3% active in at least one column).
